Compound activity deposited in PubChem by National Center for Advancing Translational Sciences (NCATS).
Six1-Eya2 blk: Six1/Eya2 interaction inhibition; activity change, % (no concentration beside the values); AlphaScreen GST-Six1/His-Eya2 binding, biochemical; stronger effect = lower value; control for the full effect not named in the record; Q15475+O00167; hit rate 0.56% among 360,000; AID 651725; in the data active = activity change below about -65%; inconclusive = about -30% to -65%; inactive = above about -30%; note: % is set by controls: 0 for no effect and ±100 for the full control effect; compound concentration not given in the record
Target sequence (O00167 whole entry, looked up): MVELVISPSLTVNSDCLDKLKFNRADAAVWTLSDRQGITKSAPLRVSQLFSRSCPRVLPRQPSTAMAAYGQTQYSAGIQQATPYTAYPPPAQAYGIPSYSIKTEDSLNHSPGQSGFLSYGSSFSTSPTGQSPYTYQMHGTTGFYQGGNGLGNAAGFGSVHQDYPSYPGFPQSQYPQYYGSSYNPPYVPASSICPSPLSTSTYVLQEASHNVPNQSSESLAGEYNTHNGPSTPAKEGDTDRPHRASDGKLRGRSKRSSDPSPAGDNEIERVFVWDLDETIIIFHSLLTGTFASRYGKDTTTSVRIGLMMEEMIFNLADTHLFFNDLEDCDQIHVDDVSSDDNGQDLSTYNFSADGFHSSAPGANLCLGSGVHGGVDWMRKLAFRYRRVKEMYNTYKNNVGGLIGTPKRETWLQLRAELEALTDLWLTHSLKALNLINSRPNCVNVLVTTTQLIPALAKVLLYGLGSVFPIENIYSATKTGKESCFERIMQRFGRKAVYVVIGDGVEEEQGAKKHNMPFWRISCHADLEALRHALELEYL
Target sequence (Q15475 whole entry, looked up): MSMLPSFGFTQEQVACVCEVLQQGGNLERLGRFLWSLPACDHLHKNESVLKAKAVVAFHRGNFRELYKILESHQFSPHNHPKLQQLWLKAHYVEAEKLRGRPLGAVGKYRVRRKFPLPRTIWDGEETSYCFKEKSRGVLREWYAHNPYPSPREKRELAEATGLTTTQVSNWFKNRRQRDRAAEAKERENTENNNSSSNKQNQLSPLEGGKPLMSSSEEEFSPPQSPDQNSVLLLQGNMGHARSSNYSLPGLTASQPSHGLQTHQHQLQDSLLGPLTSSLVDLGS
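GST-Six1 + His-Eya2 (5X stock: 250/500 nM); Tris pH 8.0, 300 mM NaCl, 0.05% BSA, 0.02% Tween 20; GSH donor/Ni acceptor beads; 1 h 37 °C dark; AlphaScreen readout.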
D2 potentiator: positive allosteric modulators of human D2 dopamine receptor; DiscoveRx D2 beta-arrestin cells, luminescence, 90 min; 100% = 57 uM dopamine signal; hit rate 0.23% among 360,000; potentiation, % (test concentration not listed); P14416; active = potentiation of 50% or more; inconclusive = 30% to 50%; inactive = 30% or less;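 note: compound concentration not given in the record; tested on top of an EC20 dose of dopamine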
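D2 cells co-treated with compound plus 50 nM dopamine (EC20) for 90 min at 37 deg C to detect potentiation. Beta-arrestin recruitment was read as enzyme-fragment luminescence after 1 h at ambient temperature. Full response was set by 57 uM dopamine.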
CtBP-E1A inh: blocks the CtBP interaction with E1A; activity change, % (concentration not given with the values); hit rate 0.49% among 340,000; AlphaScreen GST-E1A/His-CtBP binding, 1536-well; stronger effect = lower value; control for the full effect not named in the record; in the data active means activity change below about -65%; inconclusive means about -30% to -65%; inactive means above about -30%; note: % is set by controls: 0 for no effect and ±100 for the full control effect
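AlphaScreen with 125 nM GST-E1A and 125 nM His-CtBP (5X stocks) in Tris pH 8.0, 300 mM NaCl, BSA, Tween 20, TCEP. Compounds preincubated 2 h at 37 deg C, then glutathione donor/nickel acceptor beads added for 1 h at 37 deg C in dark.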
TRPML1 inh: blocks the human TRPML1 channel | Q9GZU1 | TRPML1-inducible cells, Ca2+ dye fluorescence, FDSS; stronger effect = lower value; inhibition of EC80 agonist-evoked calcium signal | activity change, negative = inhibition, % (no concentration beside the values) | hit rate 0.02% among 390,000; in the data active means activity change below about -50%; inconclusive means about -30% to -50%; inactive means above about -30%;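 note: stimulus is agonist 54-4 at its EC80 concentration; % is set by controls: 0 for no effect and ±100 for the full control effect; compound concentration not given in the record; the text of the record puts the active cut at -80%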
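Calcium fluorescence in TRPML1-DL cells induced overnight with Tet: a 110 s read after compound pin addition, then a 110 s antagonist read after challenge with 54-4 at 4 uM final (EC80).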
TRPML1 ag: activates the human TRPML1 channel | Q9GZU1 | TRPML1-expressing cells, Ca2+ dye fluorescence, FDSS; host cell line not named in the record; reference of the full effect not given here | activation, % (concentration not given with the values) | hit rate 0.12% among 410,000; in the data active = activation above about 50%; inconclusive = about 30% to 50%; inactive = below about 30%; note: 0% is about no effect; the text of the record puts the active cut at 80%
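Cells: TRPML1-DL, 1X Tet inducer, ~16 h at 37 degrees C/5% CO2. Dye: ABD Ca8 no-wash + quencher, 45-90 min RT. Read: 10 s baseline, compound add, 110 s agonist phase; 54-4 EC80 (4uM final), 110 s antagonist phase.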
TRPV1 PAM: enhances activation of the human vanilloid receptor TRPV1 | TRPV1-expressing cells, Fluo-8 calcium influx, capsaicin EC20 potentiation; host cell line not named in the record; control for the full effect not named in the record | potentiation, % at 8.33 µM | Q8NER1 | hit rate 0.02% among 320,000; active means potentiation above 80%; inconclusive means 30% to 80%; inactive means below 30%; note: 0% is about no effect
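TRPV1-expressing cells were cultured overnight at 35.5C and loaded with Fluo-8 calcium dye for 40 to 90 min at room temperature. After a 10 s baseline, compound was added and calcium influx was read kinetically for 3 min (ex 480/em 520 nm).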
Active calls of the source: *; ? = inconclusive; · = no result given.

SMILES	Six1-Eya2 blk	D2 potentiator	CtBP-E1A inh	TRPML1 inh	TRPML1 ag	TRPV1 PAM
Cc1cccc(Nc2nc(NCC3CCCO3)nc(N)c2[N+](=O)[O-])c1 (stereo not drawn)	2	1	1	10	-1.7	11
COc1ccc2cc(C(=O)Nc3ccccc3)sc(=O)c2c1OC	10	-6	-10	-11	0.2	-19
COc1ccc2nc(C)cc(N/N=C/c3cccc(OC)c3O)c2c1	?	-11	?	10	0.6	-25
CN(C)C(CNC(=O)c1ccc2[nH]c(=O)c(=O)[nH]c2c1)c1ccco1 (stereo not drawn)	5	-1	·	-4	-0.3	9
CC(c1nccs1)N(C)C(=O)c1cn(Cc2cccc3ccccc23)nn1 (stereo not drawn)	3	-13	4	-8	-0.6	-14
CCc1noc(C)c1C(=O)Nc1cc(S(=O)(=O)N(CC)CC)ccc1N1CCCC1	5	-3	-4	5	0.2	-7
O=C(NCCc1nccs1)C1CCC(=O)N(CCc2ccc(Cl)cc2)C1 (stereo not drawn)	-2	2	0	4	0.2	8
Cn1c(=O)n(-c2cccc(Cl)c2)c(=O)n1C	1	-12	2	9	0.0	-3
CCn1c(SCC(=O)Nc2cccc(F)c2)nc2c(c1=O)SC(C)C2 (stereo not drawn)	-3	6	-3	-12	0.8	2
CCC(CC)COC(=O)C1=C(C)NC(=O)NC1c1cc(OC)ccc1OC (stereo not drawn)	-3	-10	·	3	-0.1	-25
CCOC(=O)C1=CCN(S(=O)(=O)c2ccccc2Cl)C1c1cccc(Cl)c1 (stereo not drawn)	-2	-2	5	-2	8.4	·
CCOc1ccc(NC(=O)CSc2nnnn2C2CCCC2)cc1	10	-2	-13	86	0.0	15
O=C(Nc1ccc(-c2cn3ccsc3n2)cc1)C1CC1	?	2	?	-2	-1.3	-6
CC(=O)Nc1nc2cc(N)ccc2s1	-9	-1	-3	7	-1.1	9
CC1CCCCC1NC(=O)CN1c2cccc3cccc(c23)S1(=O)=O (stereo not drawn)	6	-7	-3	-3	2.9	-6
C/C(=N\Nc1nncc2ccccc12)c1ccc(O)cc1	0	-6	-3	-6	1.1	-13
O=C(O)CCC(=O)OCCCc1cc2ccccc2c(=O)o1	9	-1	-24	-5	0.3	·
CN(CC(=O)Nc1ccccc1Br)C(=O)c1ccccc1OCc1ccccc1Cl	0	2	-2	29	5.8	·
CCN(Cc1ccccc1)c1c(C(=O)O)cnc2c1cnn2C	10	-6	2	-4	-0.7	19
Cc1nnsc1NC(=O)OCc1ccc(Cl)cc1Cl	10	1	-2	7	-0.7	-3
COc1ccc2[nH]c(C)c(CCN3C(=O)C4CC=CCC4C3=O)c2c1 (stereo not drawn)	-13	-2	-22	22	0.6	·
O=C(CNC(=O)c1ccc(Cl)cc1Cl)Nc1ccc(F)cc1	5	-6	4	-11	1.8	-9
Oc1[nH]c2ccccc2c1N=Nc1ccccn1	0	13	6	-5	1.1	·
O=C(O)c1cc(N/N=C/c2c(O)ccc3ccccc23)ccc1Cl	?	-9	?	6	1.0	14
CN(C(=O)c1cccc(NC(=O)Cc2ccc(NC(=O)C3CCCN(C(=O)C4CCCCC4)C3)cc2)c1)C1CCC1 (stereo not drawn)	-3	3	0	2	1.2	·

Record cards, as listed above:
Cn1c(=O)n(-c2cccc(Cl)c2)c(=O)n1C is listed as Six1-Eya2 blk = 1; D2 potentiator = -12; CtBP-E1A inh = 2; TRPML1 inh = 9; TRPML1 ag = 0.0; TRPV1 PAM = -3
CN(C)C(CNC(=O)c1ccc2[nH]c(=O)c(=O)[nH]c2c1)c1ccco1 (stereo not drawn) is listed as Six1-Eya2 blk = 5; D2 potentiator = -1; CtBP-E1A inh = ·; TRPML1 inh = -4; TRPML1 ag = -0.3; TRPV1 PAM = 9

Back to the main list with the four entries that preceded the break.
SMILES	Six1-Eya2 blk	D2 potentiator	CtBP-E1A inh	TRPML1 inh	TRPML1 ag	TRPV1 PAM
O=C(CNC(=O)c1ccc(Cl)cc1Cl)Nc1ccc(F)cc1	5	-6	4	-11	1.8	-9
Oc1[nH]c2ccccc2c1N=Nc1ccccn1	0	13	6	-5	1.1	·
O=C(O)c1cc(N/N=C/c2c(O)ccc3ccccc23)ccc1Cl	?	-9	?	6	1.0	14
CN(C(=O)c1cccc(NC(=O)Cc2ccc(NC(=O)C3CCCN(C(=O)C4CCCCC4)C3)cc2)c1)C1CCC1 (stereo not drawn)	-3	3	0	2	1.2	·
O=C(Nc1c(-c2ccccc2)[nH][nH]c1=O)c1ccc(Br)cc1	2	-4	10	·	0.0	·
COc1ccc(CNC(=O)/C(C#N)=C2\N=C(NC(=O)c3cccs3)c3ccccc32)cc1	-12	-24	-16	10	-0.1	3
COC(=O)c1cc(CNC(=O)c2sccc2-c2ccccc2)ccc1OC	14	3	3	18	2.3	4
COc1ccccc1N(C)S(=O)(=O)c1ccc(C(=O)Nc2cccc(S(=O)(=O)N3CCOCC3)c2)cc1	-2	-3	2	17	0.5	·
CCC(=O)Nc1ccc(Cl)c(NC(=O)c2ccc(Br)o2)c1	-4	-5	2	0	0.7	-10
Cn1c(N)c(Sc2ccc([N+](=O)[O-])cc2)c(=O)n(C)c1=O	6	-9	-8	-2	0.2	14
Cc1ccc(-n2ncc(-c3nnc(SCC(=O)NC4CCCC4)o3)c2N)cc1C	-12	-3	-6	3	1.4	25
O=C(NC(=S)Nc1ccc(Br)c(Cl)c1)C1CC1	-1	-5	-6	16	2.0	-9
CC(OC(=O)/C=C/c1ccco1)C(=O)NC1CCCCC1 (stereo not drawn)	0	-10	0	3	-0.6	·
CN(C)CCNS(=O)(=O)c1ccc(N2CCc3ccccc32)c([N+](=O)[O-])c1	?	-21	?	-28	0.0	3
CCCOc1ccc(C(=O)NNC(=S)NC(=O)c2cc(-c3ccccc3)nc3ccccc23)cc1	-6	3	-4	-9	2.1	-3
CCOc1ccc2oc(-c3ccccc3)c(C(=O)O)c2c1	1	1	3	8	-0.9	-6
COc1cccc(CC2(CO)CCCN(C/C=C/c3ccccc3OC)C2)c1 (stereo not drawn)	-10	-4	·	27	0.1	5
COc1ccc(CCC2(C)NC(=O)NC2=O)cc1 (stereo not drawn)	4	-17	7	-6	-0.3	-8
CC(=O)c1c(C)nc2nonc2c1N	2	4	8	8	-1.0	16
COc1ccc(CCNC(=O)C2CCN(S(C)(=O)=O)CC2)cc1OC	0	11	17	11	4.9	-7
CC[C@]12c3[nH]c4cc(CCC(=O)N(C)C)ccc4c3CCN1C(=O)[C@@H](CC(=O)NCCC1=CCCCC1)C[C@@H]2C(=O)N1CCN(C(=O)C2CC2)CC1	1	·	0	-2	-0.6	·
COC(C(=O)C(O)C(C)O)C1Cc2cc3cc(OC4CC(OC5CC(O)C(O)C(C)O5)C(O)C(C)O4)c(C)c(O)c3c(O)c2C(=O)C1OC1CC(OC2CC(OC3CC(O)C(OC)C(C)O3)C(O)C(C)O2)C(O)C(C)O1 (stereo not drawn)	-18	17	6	-1	1.0	·
CCn1ccnc1C(O)(c1ccccc1)c1ccccc1	4	-2	-2	-9	0.2	-9
COC(=O)c1c(C)[nH]c(C(=O)CC#N)c1C	-2	-6	11	14	0.5	-1
CN1C(=O)CC(NNC(=O)c2ccc(Cl)cc2)C1=O (stereo not drawn)	-10	19	-10	10	0.6	-6
COc1ccccc1CNC(=O)C(C)NS(=O)(=O)c1ccc(Br)cc1 (stereo not drawn)	-2	-7	4	6	-0.1	-3
CC[C@]12c3[nH]c4ccc(Cl)cc4c3CCN1C(=O)[C@@H](CC(=O)NCc1ccco1)C[C@@H]2C(=O)N1CCN(C(=O)C2CC2)CC1	-1	-3	-9	-4	-0.6	·
Cc1ccccc1NC(=O)CN1C(=O)c2cccnc2Oc2ccc(Cl)cc21	-2	5	-12	-17	-1.1	-9
COc1ccc(NC(=O)CC2C(=O)N(c3ccc(OC)cc3)C(=S)N2NC(=O)c2cccc(F)c2)cc1 (stereo not drawn)	2	-8	0	-8	-0.1	-6
(next part)
SMILES	Six1-Eya2 blk	D2 potentiator	CtBP-E1A inh	TRPML1 inh	TRPML1 ag	TRPV1 PAM
O=C1CN(C(=O)CSc2nc(-c3ccccc3)cs2)c2ccccc2N1	-4	-20	1	-4	-0.3	2
Cc1csc(SCC(=O)Nc2cc(S(=O)(=O)N(C)C)ccc2C)n1	1	-9	4	-2	1.9	18
CCC(=O)N1CCN(c2ccc(NC(=O)c3cc4ccccc4o3)cc2)CC1	4	?	0	37	-0.7	-1
COc1ccc(Oc2nc(-c3ccccc3)ncc2C(=O)O)cc1	3	1	6	-11	1.4	-32
O=C1N=C(N2CCCCC2)S/C1=C\c1ccncc1	0	9	8	3	0.4	-9
CCCCCC(=O)Nc1ccc(-c2nnc3n2CCCCC3)cc1	2	11	5	7	-0.5	3
COc1ccccc1N1CCN(C(=O)c2ccc(S(=O)(=O)N3CCCC3)cc2)CC1	-2	-9	2	-6	-1.2	-1
COc1cc(C)c(Cl)cc1S(=O)(=O)n1cnc(C)c1	2	5	4	1	1.2	0
O=C(Nc1ccc2oc(=O)ccc2c1)c1cccnc1Cl	3	-6	-3	5	0.0	4
Cc1noc(C)c1COc1ccccc1C(=O)N1CCN(S(=O)(=O)c2ccc(C(C)C)cc2)CC1	-7	-8	0	0	-1.3	·
Cc1sc2ncn(CC(=O)N3CCCCC3)c(=O)c2c1S(=O)(=O)N1CCC(C)CC1	-15	-14	0	54	-1.1	4
Clc1ccc(Cc2nc(-c3ccncc3)no2)cc1	9	-10	·	55	1.0	-12
O=C(CSc1nc2ccccc2c(=O)n1-c1ccc(F)cc1)NCc1ccco1	-4	-9	-5	14	2.5	-28
COc1cc(C(=O)Oc2cccc(Nc3ncnc4ccccc34)c2)cc(OC)c1OC	-13	14	7	-8	0.7	4
c1cncc(C(c2nnnn2C2CCCCC2)N2CCN3CCCC3C2)c1 (stereo not drawn)	3	-24	5	14	1.6	-5
CCC(CC)NC(=O)Nc1ccccc1C(F)(F)F	6	-14	-8	·	·	-21
CNC(=S)N(Cc1ccco1)Cc1cc2cc3c(cc2[nH]c1=O)OCCO3	-5	-12	-1	-6	-0.5	-10
Cn1c(SCc2nnc(-c3ccccc3Br)o2)nc2sc3c(c2c1=O)CCC3	-15	-4	6	22	1.2	9
CCC1(CC)NC(=O)N(CC(=O)Nc2sc3c(c2C(N)=O)CCC3)C1=O	-28	-13	-12	17	-0.1	-3
CN1CCCN(C(=O)C2CCCCC2)CC1	7	-6	4	1	-0.3	1
CC(=O)Nc1ccc(CNc2nc(NCc3cccs3)nc3ccsc23)cc1	1	-17	2	·	7.8	·
Cc1cccc(-c2nnc(SCC(=O)Nc3cc(C)on3)n2C)c1	7	-3	-3	10	1.3	-3
Cc1cccc(N2CCN(C(=O)NC3CCCCC3)CC2C)c1 (stereo not drawn)	5	-3	6	-3	0.3	-7
CCC(C)(C)NC(=O)C(c1cccnc1)N(C(=O)c1csnn1)c1ccc(C)cc1 (stereo not drawn)	11	-8	-3	-4	0.3	9
Cc1cc(NS(=O)(=O)c2ccc(NC(=O)NC(C)(C(F)(F)F)C(F)(F)F)cc2)no1	8	-6	6	14	0.5	1
COc1ccc(OCC(=O)N2CCC3(CC2)CC(=O)c2ccccc2O3)cc1	-1	2	-1	-2	1.0	1
